HNF4A DNA FP – change in binding of human HNF4A to DNA, primary screen, biochemical, fluorescence polarization, FITC-DNA; Hepatocyte nuclear factor 4-alpha (Homo sapiens), P41235; 1 h; activity change, % at 10 µM; hit rate 0.3% among 360,000; in the data active = activity change above about 30%, passing the limit was not always enough;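 note: controls were the assay level and a saturating level of protein; the project sought stronger binding though the title names inhibitors; some compounds called inactive have numbers as strong as hits; positive values seem to mean higher polarization but the record does not say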
Ecoli rRNA inh – reduced GFP signal of wild-type E. coli, primary screen, bacterial rRNA inhibitor project, GFP/RFP fluorescence, OD600, single point. GFP signal change (wild-type ribosome), % (test concentration not listed). AID 720706, 2013. E. coli WT GFP vs humanized-ribosome RFP mutants, 24 h; stronger effect = lower value; DMSO median 0, no signal -100. hit rate 1.6% among 350,000;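 active = significant combined selectivity score with lowered wild-type GFP, culture density cut under 30%, mutant RFP and density less affected; inactive = any of these conditions unmet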; note: one replicate is shown; some compounds called inactive have numbers as strong as hits
Ecoli growth – E. coli growth inhibition, primary screen, OD600; AID 1053175, 2014; Escherichia coli growth, 23 h; stronger effect = lower value; OD600 absorbance (test concentration not listed); hit rate 0.21% among 330,000;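 active = OD600 absorbance below the run mean of sample wells minus 3.6 SD, in any replicate, cut at about 0.56 in these data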;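 note: stock transfer was 300 nL into about 60 µL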
Beta2AR agonist – beta2AR agonists driving receptor internalization, primary screen, cell-based, FAP fluorogen, flow cytometry; Beta-2 adrenergic receptor (Homo sapiens), P07550; Am2.2-beta2AR cells; reference of the scale not given here; response, % (test concentration not listed); hit rate 0.43% among 340,000; AID 504454, 2011;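 active = response above a set limit, near 3 SD of response in nonfluorescent compounds, cut at about 42% in these data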;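 note: stock transfer was 100 nL into about 11 µL; a reference agonist was the positive control; negative values mostly stem from fluorescent compounds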
Target sequence (P07550 whole entry, looked up): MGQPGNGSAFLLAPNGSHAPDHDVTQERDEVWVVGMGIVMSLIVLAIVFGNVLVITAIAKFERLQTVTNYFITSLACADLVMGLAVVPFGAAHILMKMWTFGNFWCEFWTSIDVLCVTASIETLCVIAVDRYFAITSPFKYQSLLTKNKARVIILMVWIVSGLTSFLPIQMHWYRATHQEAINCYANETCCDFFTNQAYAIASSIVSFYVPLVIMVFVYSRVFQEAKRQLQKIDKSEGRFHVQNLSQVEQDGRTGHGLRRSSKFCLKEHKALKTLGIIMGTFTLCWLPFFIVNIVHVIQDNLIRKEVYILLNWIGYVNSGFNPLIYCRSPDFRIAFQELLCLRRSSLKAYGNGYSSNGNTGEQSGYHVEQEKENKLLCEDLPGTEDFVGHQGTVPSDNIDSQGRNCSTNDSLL
UCH37 inh – inhibitors of human UCH37 deubiquitinase, primary screen, biochemical, Ub-AMC cleavage, fluorescence | Ubiquitin carboxyl-terminal hydrolase isozyme L5 (Homo sapiens), Q9Y5K5 | AID 588478, 2011 | inhibition, % (concentration not given with the values) | hit rate 0.33% among 330,000 | purified proteasome/UCH37;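 active = mean of two replicates above 20%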;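 note: 0% = compound-free wells with enzyme and 100% = wells lacking proteasome; stock transfer was 100 nL into about 20 µL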
Target sequence (Q9Y5K5 whole entry, looked up): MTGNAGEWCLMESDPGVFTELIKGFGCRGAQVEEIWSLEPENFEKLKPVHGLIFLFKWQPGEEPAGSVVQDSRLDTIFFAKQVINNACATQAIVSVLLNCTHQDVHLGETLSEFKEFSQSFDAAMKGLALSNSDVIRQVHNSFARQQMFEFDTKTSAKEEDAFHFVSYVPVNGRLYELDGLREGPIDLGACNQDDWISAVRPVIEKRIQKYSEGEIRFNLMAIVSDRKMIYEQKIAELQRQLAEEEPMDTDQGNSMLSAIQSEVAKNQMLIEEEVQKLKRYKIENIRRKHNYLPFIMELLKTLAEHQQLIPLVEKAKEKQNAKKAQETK
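assay system = human UCH37 enzyme supplied as purified proteasome complex | amount = proteasome at 0.15 nM in the dispensed enzyme solution | schedule = 30 min compound-proteasome preincubation then 25 min substrate reaction, room temperature | measured by = fluorescence, ex 355 nm, em 460 nm | benchmarks = no-proteasome wells (full inhibition) and compound-free wells (no inhibition)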
ALR H2O2 inh – inhibitors of human ALR sulfhydryl oxidase, primary screen, biochemical, H2O2 detection, HRP-luminol luminescence, single point; FAD-linked sulfhydryl oxidase ALR (Homo sapiens), P55789; purified ALR, DTT oxidation; inhibition, % (test concentration not listed); hit rate 3.8% among 290,000; AID 485317, 2010;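 active = mean and each replicate at 75% or more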;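 note: stock transfer was 7.5 nL into about 7.5 µL; 0% = neutral wells and 100% = wells with inactivated enzyme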
Target sequence (P55789 whole entry, looked up): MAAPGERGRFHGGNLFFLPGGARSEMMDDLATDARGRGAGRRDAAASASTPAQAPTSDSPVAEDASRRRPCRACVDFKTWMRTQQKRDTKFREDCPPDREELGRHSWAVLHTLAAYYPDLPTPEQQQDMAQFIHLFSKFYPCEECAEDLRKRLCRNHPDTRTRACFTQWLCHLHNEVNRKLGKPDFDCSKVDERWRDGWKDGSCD
FGF22 binding – binders of human FGF22 protein, primary screen, FGF22 synaptogenesis inhibitor project, biophysical, thermal shift, single point | hit rate 1.5% among 340,000 | recombinant FGF22 thermal shift, SYPRO orange fluorescence; percent of sucrose octasulfate shift, DMSO zero | calls only at 9.99 µM | Fibroblast growth factor 22 (Homo sapiens), Q9HCT0;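 active = melting point raised past a set limit in the mean and every replicate; three in four hits are not shown here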
Ecoli rRNA inh OD600 – further read-out of Ecoli rRNA inh, marked with its call; OD600 change, %; measured here: OD600 growth;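 optical density of the mix in the first replicate; 0 = DMSO median and -100 = no signal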
Ecoli rRNA inh RFP – further read-out of Ecoli rRNA inh, marked with its call; RFP signal change, %; measured here: RFP humanized mutant strains;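 first replicate; 0 = DMSO median and -100 = no signal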
* hit, by the source's call; i = inactive; · = no result given; & = joins results of further samples. These rows are one share of the data; the hit share may differ from the screen's.

The opening two compounds, to show the layout:
SMILES	HNF4A DNA FP	Ecoli rRNA inh	Ecoli rRNA inh OD600	Ecoli rRNA inh RFP	Ecoli growth	Beta2AR agonist	UCH37 inh	ALR H2O2 inh	FGF22 binding
COCCNC(=O)C1CCCN(Cc2ccc(Cl)cc2)CC1 (stereo not drawn)	-1.3	13	9	0.3	·	·	·	·	i
CCOC(=O)/C(C#N)=C/c1cn(CCOc2ccccc2)c2ccccc12	-3.4	8	1	2.1	0.72	-40	-2.0	·	i

This part in full, from the first entry:
SMILES	HNF4A DNA FP	Ecoli rRNA inh	Ecoli rRNA inh OD600	Ecoli rRNA inh RFP	Ecoli growth	Beta2AR agonist	UCH37 inh	ALR H2O2 inh	FGF22 binding
COCCNC(=O)C1CCCN(Cc2ccc(Cl)cc2)CC1 (stereo not drawn)	-1.3	13	9	0.3	·	·	·	·	i
CCOC(=O)/C(C#N)=C/c1cn(CCOc2ccccc2)c2ccccc12	-3.4	8	1	2.1	0.72	-40	-2.0	·	i
Cc1cc(C)n(CNc2nc(C(F)(F)F)cs2)n1	-0.3	·	·	·	0.76	-5	-1.4	-6	·
COc1ccc(CNC(=O)COc2cccnc2[N+](=O)[O-])cc1	-0.5	2	-3	-5.6	0.67	-2	3.4	·	i
COc1ccc(-c2nc(CSCC(=O)N3CCN(C)CC3)c(C)o2)cc1OC	2.8	1	-2	-0.3	0.74	-1	4.9	99*	i
O=C(COc1ccc(F)cc1Br)NCc1ccccn1	2.3	·	·	·	0.64	-7	-1.1	-7	·
O=S(=O)(Nc1ccc2ccccc2n1)c1ccc2c(c1)CCO2	-2.9	2	5	0.6	0.66	-7	1.0	-3	i
Cn1c(=O)c2c(nc(-n3ccnc3)n2Cc2ccc(Cl)cc2Cl)n(C)c1=O	1.8	·	·	·	0.69	-10	6.2	-8	·
Cc1ccccc1N1C(=O)CSC1=C(C#N)C#N	6.6	3	8	64	0.72	4	3.0	·	i
COc1cc(CNC(C)(C)CO)cc(Br)c1OCc1ccc(Cl)cc1Cl	1.3	-56	-76	-33	0.67	26	8.2	-22	i
CNC(=O)c1cc(C(=O)c2ccc(C(F)(F)F)cc2)c[nH]1	0.7	-3	6	-3.8	0.69	-28	2.7	·	i
COCCC1CCCCN1C(=O)c1ccc2nc(Cc3ccccc3F)oc2c1 (stereo not drawn)	3.9	-12	-8	-1.8	0.69	-6	1.7	1	i
COc1ccc(CCNC(=O)C(=O)c2cn(CC(=O)N3CCCC3)c3ccccc23)cc1OC	0.1	-6	2	1.4	·	·	·	·	i
Cc1onc(-c2c(F)cccc2Cl)c1C(=O)OCC(=O)N1C(C)CCCC1C (stereo not drawn)	-6.9	-1	-37	-7.4	0.69	0	0.6	-4	i
Cc1ccc(S(=O)(=O)N2CCN(C(=O)COC(=O)COc3ccc(Cl)cc3)CC2)c(C)c1	2.4	·	·	·	0.71	-4	3.7	·	i
CN1CCN(c2ccc([N+](=O)[O-])cc2S(=O)(=O)N2CCOCC2)CC1	3.8	·	·	·	0.73	-1	6.5	-8	·
Cc1cc(C)n2nc(SCC(=O)NC(=O)c3ccccc3Cl)nc2n1	0.4	10	12	-0.8	0.63	-5	1.6	-3	i
Cc1cc(OCCCC(=O)NNC(=O)c2ccncc2)ccc1Cl	1.4	-6	-14	-3.8	0.69	1	7.1	-1	i
CC(C)(C)C(=O)Nc1ccccc1C(=O)NCCCn1ccnc1	-0.4	11	10	1.5	0.65	1	1.6	-2	i
Cc1ccc(-c2nnc(CSc3nnc(COc4ccccc4)n3-c3ccc(C)cc3)o2)cc1	0.8	·	·	·	0.72	5	1.2	-15	·
COc1ccc(-n2cnnc2SCC(=O)NCc2cccs2)cc1	3.4	·	·	·	0.68	6	-1.1	-5	·
COCCCn1c(SCC(=O)NC2CCCC2)nnc1-c1ccncc1	0.2	9	9	1.1	0.7	-3	3.2	0	i
FC(F)(F)COc1nc(N/N=C/c2cccnc2)nc(N2CCCCC2c2ccccn2)n1 (stereo not drawn)	1.1	-33*	-2.7*	-5.4*	·	-9	·	62	i
Cc1cc(=O)[nH]c(SCC(=O)NNC(=O)Cc2ccccc2)n1	-0.9	8	-9	2.4	·	12	·	-5	i
O=C1N/C(=N/N=C/c2ccccc2)SC1(c1ccccc1)c1ccccc1	-2.6	6	12	1.5	·	7	·	-10	i
COc1ccc2cc(CN(CCc3ccccc3)Cc3nnnn3CC3CCCO3)c(=O)[nH]c2c1 (stereo not drawn)	-3.5	·	·	·	0.69	-15	-11	-3	·
CN1C(=O)C2C=CC1C1C(=O)N(c3ccccc3)C(=O)C21 (stereo not drawn)	4.2	·	·	·	0.7	-2	-0.1	-7	·
Cc1ccc(C)c(Oc2coc3cc(OCC(=O)Nc4ccccc4C(C)C)ccc3c2=O)c1	·	·	·	·	0.72	·	0.1	-14	·
Nc1ccn([C@H]2C[C@H](O)[C@@H](CO)O2)c(=O)n1	-1.2&1.7	·	·	·	·	-16&4	0.8&1.3	16&-18	i
CC(C)C[C@H](NC(=O)N1CC(=O)Nc2ccccc21)C(=O)N[C@H](Cc1ccccc1)C(=O)O	-1.2	13	-1	1.9	0.79	6	-2.6	-9	i
CCCn1c(N2CCOCC2)nc2c1c(=O)[nH]c(=O)n2C	3.2	5	4	-1.5	0.66	1	-0.4	-6	i
Cc1cc(C)c2cc(CN(CCCN(C)C)C(=S)NCc3ccccc3)c(=O)[nH]c2c1	3.3	1	-3	4.5	0.7	6	4.1	-34	i
CC(=O)Nc1ccc(OCC(O)Cn2nc(C)c(C)c2C)cc1 (stereo not drawn)	2.5	8	-4	2.3	0.65	-10	1.3	-2	i
C=CCC[C@@H](Cc1ccc(F)cc1)C(=O)OC[C@@H](Cc1c[nH]c2ccccc12)NC(=O)[C@@H](CC=C)CC(=O)NCCO	1.4	-11	-19	6.7	0.71	-4	3.4	·	i
NC(=O)c1cc(S(=O)(=O)NCc2ccc(Br)cc2)cs1	-3.3	10	3	1.8	0.67	10	1.7	-1	i
O=C(CCNC(=O)c1ccc(Br)cc1)NNC(=O)COc1ccccc1F	0.6	0	8	-3.7	0.68	4	1.2	-7	i
COC(=O)C(C(=O)OC)c1ccccc1[N+](=O)[O-]	-3.8	·	·	·	0.75	-2	4.9	-2	·
Cc1ccc(OS(=O)(=O)c2cn(C)c(=O)n(C)c2=O)cc1C	1.7	22	8	1.4	0.69	7	4.8	-8	i
O=C(c1cnn(C(=O)c2ccccc2)c1)c1ccccc1O	-0.5	·	·	·	0.65	4	-49	·	·
CCCn1c(-c2cccnc2Cl)nc2cc(Cl)c(Cl)cc21	-1.1	-59	-81	-29	0.66	-5	-1.7	-2	i
Nc1nc2n(n1)C(c1cccs1)CC(c1ccc(F)cc1)N2 (stereo not drawn)	-1.6	·	·	·	0.71	2	-0.8	-5	·
COc1ccc(/C=N/Nc2nc(C)cc(-c3ccccc3)n2)c(OC)c1	0.1	9	8	1.7	·	0	·	-2	i
CCOc1cc(N2CCOCC2)c(OCC)cc1NC(=O)c1cnccn1	-0.6	-4	3	1.3	0.68	·	4.5	-31	·
COc1cccc2cc(C(=O)Oc3ccc(NC(C)=O)cc3)c(=O)oc12	0.2	·	·	·	0.7	-4	6.2	-5	·
O=C(NC1CCCCC1)C(c1ccccc1)N(Cc1ccco1)C(=O)c1csnn1 (stereo not drawn)	3.4	-4	0	3.2	0.7	9	2.0	2	i
O=C(O)CCCCCCNS(=O)(=O)c1ccccc1	2.1	·	·	·	0.69	2	4.6	-1	·
Cc1nc(SCC(=O)Nc2ccc(S(=O)(=O)N3CCOCC3)cc2)c2c(C)c(C)sc2n1	-1.6	7	7	16	0.73	-2	3.6	-11	i
NC(=O)[C@@H]1CCCNc2c(I)cc([N+](=O)[O-])cc2C(=O)N[C@@H](CCC(=O)O)C(=O)N[C@@H](CO)C(=O)N1	-1.4	·	·	·	·	0	8.2	-5	·
Cc1ccc(C(=O)NN=C2CCCCCC2)s1	-0.2	2	2	0.3	0.65	8	0.4	11	i
COc1ccc(-c2cc3c(=O)n(CC(=O)NCCN4CCCC4)nc(C)n3n2)cc1	1.5	7	11	3.1	0.69	-6	-15	32	i
O=C(N1CCCCC1)N1CCC(c2nc3ccccc3[nH]2)CC1	3.1	5	1	3.3	0.67	-16	2.4	-3	i
O=C(NCCS(=O)(=O)c1ccc(Br)cc1)c1c(F)cccc1F	-1.1	7	-3	-2.0	0.7	1	3.4	-4	i
C/C(=N\Nc1nc2ccccc2[nH]1)c1ccc2c(c1)OCO2	-1.5	-64	-78	-23	·	10	·	100*	i
N#CC(c1ccccc1)c1cnccn1 (stereo not drawn)	2.4	14	3	9.3	0.68	-2	2.7	7	i
CC1C(=O)N2CCCc3cc(NC(=O)C4CC4)cc1c32 (stereo not drawn)	1.7	-2	12	-2.1	0.64	-5	1.5	1	i
COc1ccc(-c2coc3c(C)c4oc(=O)c(CCC(=O)O)c(C)c4cc23)cc1	-0.7	·	·	·	0.7	9	-104	·	·
O=C(CCc1nnc2n(Cc3ccccc3)c(=O)c3ccccc3n12)NCCN1CCOCC1	-4.8	5	21	0.2	0.73	-4	0.3	7	i
Cc1ccc(NC(=O)CCC(=O)N/N=C/c2ccc(O)cc2)cc1	4.8	2	8	0.0	·	0	·	95*	i
CC1CCCN(CC(O)COC(c2ccccc2)c2ccccc2)C1 (stereo not drawn)	4.7	4	-3	6.1	0.65	-7	3.5	4	i
C/C(=N\OCC(=O)NCC(F)(F)F)c1cc2ccccc2o1	1.3	7	4	-8.4	·	-5	·	-4	i

Further entries follow:
SMILES	HNF4A DNA FP	Ecoli rRNA inh	Ecoli rRNA inh OD600	Ecoli rRNA inh RFP	Ecoli growth	Beta2AR agonist	UCH37 inh	ALR H2O2 inh	FGF22 binding
CCOC(=O)/C(=C\c1c[nH]c2ccccc12)NC(C)=O	-0.3	·	·	·	0.69	2	12	·	·
C[C@H]1CN([C@@H](C)CO)C(=O)Cc2cc(NC(=O)Cc3cn(C)c4ccccc34)ccc2O[C@@H]1CN(C)S(=O)(=O)c1cn(C)cn1	4.7	6&-1	5&0	-1.2&-1.6	0.75	3	4.2	·	i
COc1ccc(OC)c(NS(=O)(=O)c2c(C)nc3sccn3c2=O)c1	-2.2	6	8	2.1	0.72	0	7.8	-2	i
O=C(NC(CC(=O)N1CCCC(C(F)(F)F)C1)c1ccccc1)c1ccccc1Cl (stereo not drawn)	0.6	-2	-6	-0.2	0.74	-5	1.5	0	i
Cc1ccc(N=C2CCCCCN2C)c(C#N)c1	4.0	·	·	·	0.71	-2	4.1	·	·
CCCCCC(O)CCC(=O)NNC1=CC(=O)CC(C)(C)C1 (stereo not drawn)	4.0	17	12	15	0.73	1	3.1	6	i
Cc1ccc(NC(=O)COC(=O)C2CSC3(C)CCC(=O)N23)cc1S(=O)(=O)N1CCOCC1 (stereo not drawn)	2.5	13	14	1.0	0.7	-4	0.3	·	i
Cn1c(C(=O)N2CCc3ccccc3C2)cc2oc3ccccc3c21	-0.6	·	·	·	0.7	-23	-2.1	-4	·
CSCCC(NS(=O)(=O)c1ccc(Cl)cc1)C(=O)OCC(=O)c1c(C)[nH]c2ccccc12 (stereo not drawn)	1.6	·	·	·	0.7	4	1.0	·	·

Screens: PubChem, several laboratories
